Screening data as filed in PubChem.
Ecoli rRNA inh – selective bacterial rRNA inhibition in E. coli | E. coli WT GFP vs humanized-ribosome RFP mutants, fluorescence, 24 h; hits give low values; DMSO median 0, no signal -100 | GFP signal change (wild-type ribosome), % (test concentration not listed) | 350,000 tested, 1.6% active | AID 720706;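 active = significant combined selectivity score with lowered wild-type GFP, culture density cut under 30%, mutant RFP and density less affected; inactive = any of these conditions unmet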; also: one replicate is shown; some compounds called inactive have numbers as strong as hits
Ecoli rRNA inh OD600 – further read-out of Ecoli rRNA inh, marked with its call; OD600 change, %; measured here: OD600 growth;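 optical density of the mix in the first replicate; 0 = DMSO median and -100 = no signal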
Ecoli rRNA inh RFP – recorded beside Ecoli rRNA inh, whose call it bears; RFP signal change, %; measured here: RFP humanized mutant strains;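 first replicate; 0 = DMSO median and -100 = no signal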
* marks the source's active call; other numbers are inactive results; & = joins results of further samples.

Ecoli rRNA inh OD600	molecule	Ecoli rRNA inh	Ecoli rRNA inh RFP
-2	CCCC(=O)Nc1ccc2c(c1)C(=O)N(C)[C@H]1CC[C@@H](CC(=O)OC)O[C@H]1CO2	-1	-2.1
-9&-12	COc1ccccc1C#Cc1cnc2c(c1)C(=O)N([C@H](C)CO)C[C@@H](C)[C@@H](CN(C)C(=O)c1ccc3c(c1)OCO3)O2	3&3	-0.9&3.0
3	COc1cc(CN2CC3(CN(C(=O)Nc4cccc(F)c4)C3)c3c(n(C)c4cc(OC)ccc34)[C@@H]2CO)cc(OC)c1	5	0.9
12	COc1cc(CNc2ncnc3c2ncn3[C@H]2CN(CCN3CCOCC3)C[C@@H](CO)O2)cc(OC)c1OC	13	0.7
24	CC(C)NC(=O)N1CCCCN2[C@H](C1)[C@@H](c1ccc(C#C[C@@H](C)O)cc1)[C@@H]2CO	9	1.4
-1	C[C@@H](NC(=O)C[C@@H]1CC[C@H](NC(=O)CN2CCOCC2)[C@H](CO)O1)c1ccccc1	2	-1.0
6	O=C(CN1CCOCC1)NCC[C@@H]1CC[C@H](NS(=O)(=O)c2ccc(F)cc2)[C@H](CO)O1	2	-3.5
-6	CC(C)NC(=O)Nc1cccc2c1O[C@H](CN(C)Cc1ccc3c(c1)OCO3)[C@@H](C)CN([C@@H](C)CO)C2=O	-7	0.8
7	COC(=O)[C@]12C[C@H](CC(=O)NCCCN3CCCC3=O)C(=O)N(Cc3ccccc3)C1=C[C@H](C1CCCC1)O[C@@H]2C	7	-0.9
-30	Nc1[nH]c(C(=O)c2ccccc2)c(-c2ccc(Cl)c(F)c2)c1C(=O)NCCc1c[nH]c2ccccc12	5	24
-1	CCCNC(=O)C[C@@H]1CC[C@H]2[C@@H](COc3ccc(NC(=O)c4ccc(C(F)(F)F)cc4)cc3C(=O)N2C)O1	-1	-2.0
-16	COC(=O)[C@H]1[C@H](CO)[C@H]2Cn3c(ccc(-c4ccncc4)c3=O)[C@H]2N1CC1CCCCC1	-6	8.2
0	O=C(c1cccc(F)c1)N1CCCCN2[C@H](CO)[C@H](c3ccc(C#CC4(O)CCCC4)cc3)[C@H]2C1	-4	5.2
3	C[C@@H]1CN([C@H](C)CO)C(=O)c2cc(-c3ccc(C(=O)N(C)C)cc3)cnc2O[C@H]1CN(C)C	6	-3.2
1	CCCNC(=O)N1CC2(CCN(C(=O)CN(C)C)CC2)c2c(n(C)c3cc(OC)ccc23)[C@H]1CO	3	-1.0
-3	CCc1nc2c(OCC3COc4ccccc4O3)cccn2c1N(C)C(=O)c1ccc(OC)cc1 (stereo unspecified)	7	6.5
-6	CCCNC(=O)N1CC(=O)N2[C@H](C1)[C@H](c1ccc(-c3cccc(C)c3)cc1)[C@@H]2CO	-2	0.7
3	Cc1nn(C)cc1NC(=O)C[C@@H]1CC[C@H]2[C@H](COc3ccc(NC(=O)C4CCOCC4)cc3C(=O)N2C)O1	0	-1.0
-8	O=C(CN1CCOCC1)N1CCCCN2[C@H](C1)[C@H](c1ccc(/C=C/c3ccccc3)cc1)[C@@H]2CO	4	3.1
7	CNC[C@@H]1OCc2cn(nn2)CCCC(=O)N([C@@H](C)CO)C[C@H]1C	-6	2.3
-36	O=C(C[C@H]1CC[C@@H]2[C@H](COC[C@@H](O)CN2Cc2cccc(Cl)c2)O1)NCC1CCCCC1	-4	0.0
-10	COc1ccc(NC(=O)Nc2ccc3c(c2)CC(=O)N([C@@H](C)CO)C[C@@H](C)[C@H](CN(C)Cc2ccc(Oc4ccccc4)cc2)O3)cc1	1	1.5
2	CC=Cc1ccc2n(c1=O)C[C@@H]1[C@@H](CO)[C@H](C(=O)NCC3CC3)[C@H]2N1Cc1ccncc1 (mixture of isomers)	1	-0.4
7	CC(C)NC(=O)N(C)C[C@H]1OCCCC[C@H](C)Oc2ccc(NC(=O)c3ccncc3)cc2C(=O)N([C@H](C)CO)C[C@@H]1C	0	-2.7

Structural class: those above containing a Cl atom (2)
Ecoli rRNA inh OD600	molecule	Ecoli rRNA inh	Ecoli rRNA inh RFP
-30	Nc1[nH]c(C(=O)c2ccccc2)c(-c2ccc(Cl)c(F)c2)c1C(=O)NCCc1c[nH]c2ccccc12	5	24
-36	O=C(C[C@H]1CC[C@@H]2[C@H](COC[C@@H](O)CN2Cc2cccc(Cl)c2)O1)NCC1CCCCC1	-4	0.0

The results go on.
Ecoli rRNA inh OD600	molecule	Ecoli rRNA inh	Ecoli rRNA inh RFP
-1	C[C@H]1CN([C@@H](C)CO)C(=O)c2cc(C3=CCCC3)cnc2O[C@@H]1CN(C)C(=O)c1ccccc1	-1	-0.8
-67	CCCC#Cc1ccc([C@H]2[C@H]3CN(S(=O)(=O)Cc4ccccc4)CC(=O)N3[C@H]2CO)cc1	-50	8.4
-24	COc1ccc2c3c(n(C)c2c1)[C@H](CO)N(C(C)=O)CC31CCN(Cc2ccc(Cl)cc2)CC1	2	19
-6	Cc1noc(C)c1S(=O)(=O)Nc1ccc2c(c1)C(=O)N([C@@H](C)CO)C[C@H](C)[C@H](CN(C)S(=O)(=O)c1cccs1)OCCCC[C@H](C)O2	-3	-1.1
-10	C[C@H]1CN([C@@H](C)CO)S(=O)(=O)c2ccc(C#CC3(O)CCCC3)cc2O[C@H]1CN(C)C(=O)Nc1cccc(F)c1	-3	5.3
3	C[C@@H]1CN([C@H](C)CO)C(=O)c2cc(NC(=O)CCN3CCOCC3)ccc2O[C@@H]1CN(C)S(=O)(=O)c1cn(C)cn1	6	-2.0
6	CN(C)CC#Cc1ccc([C@@H]2[C@@H](CO)N3CCCCN(C(=O)NC4CCCC4)C[C@H]23)cc1	3	1.4
-12	CCCCNc1c(-c2ccc(SC(C)CC)cc2)nc2ccc(Cl)cn12 (stereo unspecified)	-3	-4.0
-12	COc1ccc(S(=O)(=O)N(C)C[C@H]2Oc3cc(-c4ccccc4OC)ccc3S(=O)(=O)N([C@H](C)CO)C[C@@H]2C)cc1	-7	-2.1
-1	COCC#Cc1ccc2c(c1)O[C@H](CN(C)C(=O)CC1CC1)[C@@H](C)CN([C@H](C)CO)S2(=O)=O	-1	3.3
10	NCC1C2CCC(O2)C1CO (stereo unspecified)	11	1.5
8	C[C@H](CO)N1C[C@H](C)[C@H](CN(C)C(=O)Nc2ccccc2)Oc2ccc(NC(=O)CCCCCC(=O)Nc3ccccc3N)cc2CC1=O	4	-0.9
-10	C[C@H]1CN([C@@H](C)CO)C(=O)c2cc(C#Cc3cccc(F)c3)cnc2O[C@H]1CN(C)C(=O)C1CCC1	0	4.8
-54	C[C@H](CO)N1C[C@H](C)[C@@H](CN(C)Cc2ccc(Oc3ccccc3)cc2)Oc2ccc(N(C)C)cc2C1=O	-5	37
2	Cc1cccc(S(=O)(=O)N2CC[C@@H]3[C@H](CO)Nc4ccc(-c5ccccc5F)cc4[C@@H]32)c1	-1	6.8
-45	OCCN1CCN(c2ncnc3c2ncn3[C@H]2CN(Cc3ccc(-c4ccccc4)cc3)C[C@@H](CO)O2)CC1	-17	-2.7
3	CN(C)C(=O)c1ccc(-c2ccc([C@H]3[C@H](CO)N4C(=O)CN(C(=O)CC5CC5)C[C@@H]34)cc2)cc1	-1	3.6
10	CNC[C@@H]1Oc2cc(C#CC(C)C)ccc2S(=O)(=O)N([C@H](C)CO)C[C@H]1C	3	-0.8
28	O=C(C[C@@H]1CC[C@H]2NC[C@@H](O)COC[C@@H]2O1)NCc1ccc2c(c1)OCO2	1	-1.0
4	COc1ccc(S(=O)(=O)N(C)C[C@@H]2OCCCC[C@H](C)Oc3ccc(NC(=O)Nc4ccc(C(F)(F)F)cc4)cc3C(=O)N([C@H](C)CO)C[C@@H]2C)cc1	4	-2.4
6	C[C@@H]1CN([C@@H](C)CO)C(=O)c2cccc(NC(=O)c3ccncc3)c2O[C@@H]1CN(C)S(=O)(=O)c1ccccc1	-1	-1.3
-34	COc1ccc(NC(=O)N2CC(=O)N3[C@@H](CO)[C@H](c4ccc(-c5ccc(C)cc5)cc4)[C@@H]3C2)cc1	-1	31
1	CCCNC(=O)C[C@@H]1C[C@H]2c3cc(NC(=O)CN(C)C)ccc3O[C@H]2[C@@H](CO)O1	1	-1.4
9	CNC[C@H]1Oc2cc(C#C[C@@H](C)O)ccc2S(=O)(=O)N([C@@H](C)CO)C[C@@H]1C	4	-2.4

Reprinted at random: two entries already listed.
Ecoli rRNA inh OD600	molecule	Ecoli rRNA inh	Ecoli rRNA inh RFP
1	CCCNC(=O)C[C@@H]1C[C@H]2c3cc(NC(=O)CN(C)C)ccc3O[C@H]2[C@@H](CO)O1	1	-1.4
4	COc1ccc(S(=O)(=O)N(C)C[C@@H]2OCCCC[C@H](C)Oc3ccc(NC(=O)Nc4ccc(C(F)(F)F)cc4)cc3C(=O)N([C@H](C)CO)C[C@@H]2C)cc1	4	-2.4

Additional compounds follow.
Ecoli rRNA inh OD600	molecule	Ecoli rRNA inh	Ecoli rRNA inh RFP
-8	C[C@H](CO)N1C[C@H](C)[C@H](CN(C)S(=O)(=O)c2cccc(F)c2)Oc2ncc(-c3ccccc3)cc2C1=O	-8	7.5
3	C[C@@H]1CN([C@H](C)CO)C(=O)c2cc(C#CCN(C)C)cnc2O[C@@H]1CN(C)C(=O)Cc1cccnc1	4	-1.3
4	COc1ccc2c3c([nH]c2c1)[C@@H](CO)N(C(=O)CC1CC1)CC31CCN(Cc2cncnc2)CC1	-1	4.8
-2	C[C@H]1CN([C@@H](C)CO)C(=O)c2cc(NC(=O)Nc3ccc4c(c3)OCO4)ccc2O[C@@H]1CN(C)CC1CCCCC1	2	0.0
6	Cc1noc(C)c1S(=O)(=O)Nc1cccc2c1O[C@@H](CN(C)S(C)(=O)=O)[C@@H](C)CN([C@H](C)CO)C2=O	3	-0.3
0	C[C@@H]1CN([C@H](C)CO)C(=O)Cc2cc(NC(=O)Cc3ccccc3)ccc2O[C@H]1CN(C)Cc1ccc(C(F)(F)F)cc1	1	2.2
0	C[C@H]1CN([C@@H](C)CO)C(=O)c2cccc(NC(=O)Nc3ccc(C(F)(F)F)cc3)c2O[C@@H]1CN(C)Cc1ccc(C(F)(F)F)cc1	3	0.5
6	COc1cc(C(O)c2nc(-c3cncnc3)cs2)ccc1F (stereo unspecified)	18	-1.0
-13	CCCNC(=O)N(C)C[C@@H]1Oc2cc(-c3ccc(C)cc3)ccc2S(=O)(=O)N([C@@H](C)CO)C[C@@H]1C	-2	2.5
-5	COc1cccc(NC(=O)C(=O)NCC2CCCN2S(=O)(=O)c2cccs2)c1 (stereo unspecified)	-4	5.6
-61	Cc1ccc2nc(-c3ccc(F)cc3)c(Cc3cccc(Cl)c3)n2c1	-16	16
-9	COc1cccc(S(=O)(=O)Nc2ccc3c(c2)[C@@H]2C[C@H](CC(=O)NCC(F)(F)F)O[C@H](CO)[C@@H]2O3)c1	-5	1.5

Some of these compounds in order of their number in Ecoli rRNA inh RFP, rising.
smiles | Ecoli rRNA inh RFP
C[C@H]1CN([C@@H](C)CO)C(=O)c2cccc(NC(=O)Nc3ccc(C(F)(F)F)cc3)c2O[C@@H]1CN(C)Cc1ccc(C(F)(F)F)cc1 | 0.5
COc1cccc(S(=O)(=O)Nc2ccc3c(c2)[C@@H]2C[C@H](CC(=O)NCC(F)(F)F)O[C@H](CO)[C@@H]2O3)c1 | 1.5
CCCNC(=O)N(C)C[C@@H]1Oc2cc(-c3ccc(C)cc3)ccc2S(=O)(=O)N([C@@H](C)CO)C[C@@H]1C | 2.5

Additional compounds:
Ecoli rRNA inh OD600	molecule	Ecoli rRNA inh	Ecoli rRNA inh RFP
9	O=C(O)C(CCc1ccccc1)N1CCOCC1 (stereo unspecified)	14	-0.2
-1	Nc1ncnc2c1ncn2[C@@H]1O[C@H](C(=O)N2CCN(c3ccc(Cl)cn3)CC2)[C@@H](O)[C@H]1O	-2	-5.5
3	Cc1noc(C)c1S(=O)(=O)N(C)C[C@@H]1Oc2c(NC(=O)c3ccc(-c4nccs4)cc3)cccc2C(=O)N([C@H](C)CO)C[C@@H]1C	0	-3.3
-47	Cc1ccccc1S(=O)(=O)N1CCCCN2[C@H](C1)[C@@H](c1ccc(-c3cccnc3)cc1)[C@@H]2CO	-15	14
6	C[C@H](CO)N1C[C@H](C)[C@H](CN(C)S(=O)(=O)c2ccccc2)Oc2ncc(-c3cccc(C(F)(F)F)c3)cc2C1=O	0	-2.2
-61	Cc1ccccc1-c1ccccc1[C@H]1[C@@H](C#N)N(C(=O)c2ccc(F)cc2)[C@H]1CO	-16	-2.2
1	C[C@H](CO)N1C[C@H](C)[C@H](CN(C)C(=O)Nc2cccc3ccccc23)Oc2ccc(NS(=O)(=O)c3ccc(F)cc3)cc2C1=O	2	1.2
1	CCCNC(=O)N1CC2(C1)[C@@H](c1ccccc1)[C@H](CO)N2C(=O)CC1CC1	1	-1.5
1	COCC(=O)N1C[C@@H](C)[C@@H](OC)CN(C)C(=O)c2ccc(NC(=O)C3CCC3)cc2OC[C@H]1C	1	0.0
-2	Cc1noc(C)c1S(=O)(=O)N(C)C[C@@H]1Oc2ccc(NC(=O)NC(C)C)cc2CC(=O)N([C@@H](C)CO)C[C@@H]1C	1	-0.6
-4	O=C(N[C@H]1C=C[C@H](CC(=O)N2CCN(c3ccccc3)CC2)O[C@@H]1CO)c1ccccc1	-1	0.5
-44	COc1cccc(C#Cc2ccc3c(c2)O[C@H](CN(C)C(=O)c2ccccn2)[C@@H](C)CN([C@@H](C)CO)S3(=O)=O)c1	-33	9.6
-49	Cc1ccccc1-c1ccc(C2[C@H]3CNC[C@@H]2N3S(=O)(=O)Cc2ccccc2)cc1 (stereo partly specified)	-45	0.0
-12	COc1ccc(NC(=O)Nc2ccc3c(c2)C(=O)N([C@@H](C)CO)C[C@@H](C)[C@H](CN(C)Cc2ccc4c(c2)OCO4)OCCCC[C@@H](C)O3)cc1	4	1.8
13	C[C@H]1CN([C@@H](C)CO)S(=O)(=O)c2ccc(C#CC(C)(C)O)cc2O[C@@H]1CN(C)C(=O)C1CC1	5	-0.4

Only part of the results is shown; count on the stated rates, not on these rows.
